# StopGo RLuc: lowers the Renilla signal of an FMDV 2A StopGo reporter; HEK cells with a luciferase reporter of 2A StopGo recoding; Potency, µM (highest dose often 57.5 µM), for the others: at the highest dose signal change, negative = less light; hit rate 0.32% among 120,000; AID 1745857; active means well fitted falling curve with a large enough effect; inconclusive means small, poorly fitted or top-dose-only effect; inactive means no such curve, though single readings can be large or run the other way; further: nearly all actives have a fitted effect of over 55% in size; overnight with compound
# StopGo FLuc: lowers the firefly signal of an FMDV 2A StopGo reporter | HEK cells with a luciferase reporter of 2A StopGo recoding | Potency, µM (doses to about 57.5 µM), without a hit: at the highest dose signal change, negative = less light | hit rate 0.23% among 120,000; active = well fitted falling curve with a large enough effect; inconclusive = small, poorly fitted or top-dose-only effect; inactive = no such curve, though single readings can be large or run the other way; further: nearly all actives have a fitted effect of over 60% in size; overnight with compound
# * = called active by the depositor; ? = inconclusive; [ ] = dose if it differs, or a comment. On the % scale 0 is the no-effect control and ±100 the full control effect; potency means the concentration at half of the fitted maximal effect. This is a subset; the hit share may differ from the screen's.
# Each structure is followed by: StopGo RLuc | StopGo FLuc
- Cc1ccc(NC(=O)c2ccc(CNS(=O)(=O)c3ccc4c(c3)C(C)(C)C(=O)N4C)cc2)cc1F
 : 10% | -10%
- Cc1cc2nn(-c3ccc(F)cc3)nc2cc1NC(=O)c1ccc(OC(C)C)cc1
 : 0% | 5%
- Cc1ccc(N2CCN(Cc3nnc(-c4ccc5c(c4)OCO5)o3)CC2)c(C)c1
 : 18% | -9%
- CCc1ccc(OCC(=O)N(Cc2ccc(C(C)C)cc2)C2CCS(=O)(=O)C2)cc1 (stereo not given)
 : -1% | -18%
- Cc1cc(C)c2c(=O)cc(CSc3nnc(-c4cccc(F)c4)n3C)[nH]c2c1
 : 20% | 0%
- CCc1ccc2[nH]c(C)c(CN3CCCCCC3)c(=O)c2c1
 : 6% | 3%
- Cc1ccc(C)c(Cn2c(C(C)NC(=O)c3ccco3)nc3ccccc32)c1 (stereo not given)
 : 17% | -8%
- COc1ccccc1NC(=O)c1sc2nc3c(c(C(F)(F)F)c2c1N)CN(C(C)=O)CC3
 : 29% | -6%
- CCOc1ccccc1CNS(=O)(=O)c1cc2c(cc1C)NC(=O)CO2
 : 147%[activator] | -11%
- COCCOc1ccc(C(=O)/C=C/c2ccc(OC)c(O)c2)cc1
 : 0% | 0%
- CCOc1ccc(CNC(=O)c2cccc(NC(=O)N3CCSc4ncccc43)c2)cc1OC
 : -17% | -2%
- Cc1ccc(CNC(=O)Cn2cc(S(=O)(=O)Cc3cccc(Cl)c3)c3ccccc32)cc1
 : 0% | -6%
- COc1ccccc1N1CCN(C(=O)c2noc3c2CCc2sccc2-3)CC1
 : 16% | 116%[activator]
- Cc1ccccc1CN(C)CC(=O)NC(=O)NCC(F)(F)F
 : 1%[1.06 µM] | 20%
- COC(=O)c1ccccc1NC(=O)N1CCN(c2ccc(=O)n(-c3ccc(C)cc3)n2)CC1
 : -10% | -8%
- O=C(NCCc1c[nH]c2ccc(Cl)cc12)c1cccc(Cl)c1
 : 3% | 0%
- Cc1nnc(NC(=O)c2cc(=O)c3ccc(C)c(C)c3o2)s1
 : -6% | 2%
- CCc1ccccc1NC(=O)Cn1c2ncccc2c(=O)n1-c1ccccc1
 : ? | ?
- CCOC(=O)CNC(=O)CSc1cn(CC(=O)N2CCCCC2)c2ccccc12
 : 4% | -1%
- Cc1oc(-c2ccccc2)nc1CN(CC(N)=O)C(C)C
 : -3% | 6%
- Cc1ccc(Oc2nc3c(c(=O)n(C)c(=O)n3C)n2Cc2ccc(F)cc2)cc1C
 : -10% | -7%
- CCCCC(=O)N1CCN(CCNc2cc(=O)oc3ccccc23)CC1
 : -13% | 2%
- CC(=O)c1ccc(SCC(=O)O)c(F)c1
 : 3% | 13%
- COc1ccccc1NC(=O)Cn1nc(-c2ccc(C)cc2)c2c(c1=O)CCCC2
 : -12% | -12%
- CC(=O)Nc1nonc1-c1nnc(SCC(=O)Nc2cc(C)ccc2C)n1-c1ccccc1
 : 11% | -4%
- COc1nc(C(=O)N(C)CC(=O)NC(C)(C)C)cc2ccccc12
 : 5% | 7%
- COc1ccc(OC)c(NC(=O)CSc2nnc3ccc4ccccc4n23)c1
 : -4% | -8%
- CC(C)(C)c1ccc(C(=O)Nc2ccc(NC(=O)CCC(=O)O)cc2O)cc1
 : -9% | 8%
- O=C(O)C(c1c[nH]c2ccc(Cl)cc12)N1CCN(Cc2cccnc2)CC1 (stereo not given)
 : -14% | -10%
- CC(C)CNC(=O)COC(=O)c1ccc(Br)cc1
 : 3% | 8%
- Cc1cc(SCC(=O)NCCC#N)nc2c(C)cccc12
 : 17% | -6%
- CCc1nnc(C(=O)Nc2ccc(C(=O)N3CCOCC3)cc2)s1
 : 2% | 33%[activator]
- O=C(CCc1ncc(-c2ccccc2F)o1)N1CCN(CC(=O)N2CCCCC2)CC1
 : -12% | 41%[activator]
- Cn1nc(C(=O)OCC(=O)c2ccccc2)c2ccccc2c1=O
 : -3% | 5%
- COc1cccc(CNC(=O)C(C)OC(C)=O)c1 (stereo not given)
 : 19% | 33%[activator]
- COc1ccc(C)cc1NC(=O)C(Cc1ccccc1)NS(=O)(=O)c1ccc(Br)s1 (stereo not given)
 : 42%[activator] | -11%
- NC(=O)N1c2ccccc2CC(=O)c2ccccc21
 : -7% | -14%
- COCCCNC(=O)NC(=O)CSc1cc(C)c2cccc(C)c2n1
 : 11% | 0%
- Cc1ccc(Cn2ccnc2SCC(=O)NCc2ccccc2)cc1
 : -6% | -6%
- Cc1ccc(C)c(NC(=O)N2CCN(c3nc(C)cc(N4CCOCC4)n3)CC2)c1
 : 0% | 13%
- Cc1c(C(=O)OC2CCCCC2)[nH]c2c1C(=O)CC(c1ccccc1Cl)C2 (stereo not given)
 : 24% | 12%
- CCCCc1ccc(-c2cc(C(=O)NC3CCCC3)c3cc(Br)ccc3n2)cc1
 : -2% | -7%
- Cc1ccc(C)c(CN2C(=O)c3ccccc3Sc3ccc(C(=O)NCCCOC(C)C)cc32)c1
 : 0% | ?
- CCc1ccccc1NC(=O)Cn1cc(S(=O)(=O)N2CCCC2)c(S(=O)(=O)N2CCCC2)c1
 : -2% | -7%
- N#C/C(=C/c1ccc(-c2ccccc2)cc1)c1cccc([N+](=O)[O-])c1
 : -13% | 4%
- CCOc1ccc(NC(=O)c2ccc3snnc3c2)cc1
 : 0% | 295%[activator]
- CC(=O)CCS(=O)(=O)c1ccc(Cc2ccc(S(=O)(=O)CCC(C)=O)cc2)cc1
 : 23% | 0%
- COc1ccc(Cn2c(C(=O)O)c(CNCC(C)c3ccccc3)c3ccc(OC)cc32)cc1 (stereo not given)
 : 21% | -8%
- CCc1nnc(NC(=O)Cc2coc3cc4c(cc23)CCC4)s1
 : -3% | 3%
- CCCCc1nn2cc(-c3ccc(F)cc3)nc2s1
 : 17% | 217%[activator]
- COc1ccc(C2=Nc3ccc(OC(F)(F)F)cc3NC(c3cccnc3)=N2)cc1
 : 35%[activator] | 17%
- COc1ccc(OCC(=O)Nc2ccc3c(=O)c4cccc(F)c4oc3c2)cc1
 : 1% | 38%[activator]
- CNC(=O)CNC(=O)Cc1n[nH]c(=O)c2ccccc12
 : -8% | 0%
- COc1ccc(NC(=O)N(Cc2nnc3n2CCCCC3)c2ccc(C)cc2C)cc1
 : 11% | 59%[activator]
- C#CC(C)(CC)NC(=O)Cn1nnc(-c2ccc(OCc3ccccc3Cl)cc2)n1 (stereo not given)
 : -2% | 31%[activator]
- COCCNC(=O)CSc1nc(-c2ccc(C)cc2)[nH]c1-c1ccc(OC)cc1
 : 15% | -7%
- Cc1ccc(-n2ncnc2-c2cc3c(n(-c4ccccc4)c2=O)CC(C)(C)CC3=O)c(C)c1
 : -2% | 1%
- COc1cccc2cc(C(=O)NC3CCC(C)CC3)c(=O)oc12 (stereo not given)
 : 1% | 109%[activator]
- COc1ccccc1NC(=O)C1CCN(c2nc3ccccc3nc2OC)CC1
 : -8% | 2%
- O=C(NC1CCN(Cc2ccccc2)CC1)c1cc2cc(F)ccc2[nH]1
 : -3% | 12%

# The list continues:
# Each structure is followed by: StopGo RLuc | StopGo FLuc
- O=C(NCC1OCCc2ccccc21)c1ccc(Cl)cc1Cl (stereo not given)
 : 12% | 146%[activator]
- O=C(CSc1ccc2c(c1)OCCCO2)NC1CCCc2ccccc21 (stereo not given)
 : 42%[activator] | 0%
- CC1Cc2ccccc2N1C(=O)CSc1nc2cc(S(=O)(=O)N3CCCCC3)ccc2o1 (stereo not given)
 : 28% | -15%
- COc1ccccc1Nc1nc2ccccc2nc1NS(=O)(=O)c1ccc(C)c(C)c1
 : 2% | -8%
- O=C(Nc1cccc2cccnc12)c1ccccc1Cl
 : 17% | 127%[activator]
- CCn1nc(C)c2c(-c3ccccc3)cc(=O)n(C(C)C(=O)Nc3ccc(OC)c(OC)c3)c21 (stereo not given)
 : -10% | -13%
- COC(=O)C(C)Oc1ccc2c(=O)c(-c3ccccc3)c(C)oc2c1 (stereo not given)
 : 15% | 26%
- CCN(c1ccccc1)S(=O)(=O)c1ccc(OC)c(NC(=O)c2nn(C)c(=O)c3ccccc23)c1
 : 18% | 19%
- COC(=O)Cc1c(C)c2ccc(OCc3ccc(Cl)cc3)cc2oc1=O
 : 16% | 163%[activator]
- O=C(N[C@@H]1N=C(c2ccccc2F)c2cccc3c2N(CC3)C1=O)c1cc2ccccc2[nH]1
 : 3% | 8%
- CCC(Sc1nnc(C)n2c1cc1sccc12)C(=O)Nc1ccccc1F (stereo not given)
 : 351%[activator] | 66%[activator]
- N#Cc1ccc(/C=C/C(=O)N(CCc2ccccc2)Cc2cccs2)cc1
 : -14%[1.06 µM] | ?
- Cc1cc2n(n1)CCCN2C(=O)Nc1ccccc1C(F)(F)F
 : -2% | -5%
- CS(=O)(=O)c1cccc(OC(=O)/C=C/c2cccc(OCc3ccccc3)c2)c1
 : 6% | 34%[activator]
- Cc1cc(C)n2nc(CC(=O)Nc3nc(-c4cccc(Cl)c4)cs3)nc2n1
 : 8% | 7%
- COc1ccccc1CC(=O)NC(C)C1CC2CCC1C2 (stereo not given)
 : 49%[activator] | 9%
- COc1ccccc1-c1nc(COc2ccccc2C#N)cs1
 : 3% | 54%[activator]
- O=C(Nc1cccc(-c2nc3ccccc3o2)c1)c1ccc(Cl)cc1
 : -7% | 24%
- COc1ccc(CCNC(=O)c2ccc3c(c2)N(Cc2ccccc2)CCS3)cc1OC
 : -4% | ?
- CCCSc1nc(-c2ccccc2)[nH]c1S(=O)(=O)c1ccc(C)cc1
 : 244%[activator] | -7%
- COc1ccc(Nc2nc3ccccc3nc2-n2nc(C)cc2C)cc1
 : -5% | 11%
- CC(C)CC(NC(=O)c1cccc(N(C)C)c1)c1ccccc1 (stereo not given)
 : 6% | -4%
- CCc1ccc(CN(C(=O)Nc2cccc(Cl)c2)c2ccccn2)cc1
 : -4% | 124%[activator]
- Cc1oc(-c2ccc(C(=O)NC3CCCC3)cc2)nc1CS(=O)(=O)c1ccccc1
 : 7% | 14%
- Cc1ccc(-c2csc(Nc3ccc4c(c3)OCO4)n2)cc1C
 : -5% | 122%[activator]
- CC1CCCN(C(=O)CSc2c3c(nc4cc(Cl)ccc24)CCCC3)C1 (stereo not given)
 : 20% | 62%[activator]
- O=C(CSc1nc(=O)n(CCN2CCOCC2)c2c1CCC2)Nc1ccc(Cl)c(Cl)c1
 : -18% | -12%
- COc1ccc(-c2nc(CSc3nncn4c3cc3sccc34)c(C)o2)cc1OC
 : -6% | -5%
- CCN(CC(=O)N(C)C)Cc1coc(-c2ccc(C)cc2C)n1
 : 1% | 112%[activator]
- Cc1ccc(NC(=O)CN2CCCC2c2ccc(F)cc2)cc1 (stereo not given)
 : 15% | 2%

# Entries from the list above with a CF3 group:
# Each structure is followed by: StopGo RLuc | StopGo FLuc
- COc1ccccc1NC(=O)c1sc2nc3c(c(C(F)(F)F)c2c1N)CN(C(C)=O)CC3
 : 29% | -6%
- Cc1ccccc1CN(C)CC(=O)NC(=O)NCC(F)(F)F
 : 1%[1.06 µM] | 20%
- COc1ccc(C2=Nc3ccc(OC(F)(F)F)cc3NC(c3cccnc3)=N2)cc1
 : 35%[activator] | 17%
- Cc1cc2n(n1)CCCN2C(=O)Nc1ccccc1C(F)(F)F
 : -2% | -5%

# (list continues)
# Each structure is followed by: StopGo RLuc | StopGo FLuc
- CCOc1ccc(OCC)c(NS(=O)(=O)c2cc(-c3onc(C)c3C)ccc2OC)c1
 : 101%[activator] | -17%
- Cc1c2cnn(CC(=O)NCc3ccc(F)cc3)c(=O)c2c(C)n1Cc1cccc(Cl)c1
 : 36%[activator] | 0%
- O=C(Nc1ccccc1Br)N1CCC(CN2CCCC2)CC1
 : -12% | -7%
- Cc1cc(C)cc(N2C(=O)CSC23C(=O)N(CC(N)=O)c2ccccc23)c1 (stereo not given)
 : -13% | -11%
- O=C(CC1CCCC1)Nc1nc(-c2ccc3c(c2)CCO3)cs1
 : ? | -12%
- COc1ccc(N2CC(NC(=O)C3CC3)CC2=O)cc1OC (stereo not given)
 : -11% | -16%
- O=C(/C=C/c1cccnc1)Nc1ccc(SC2CCCC2)cc1
 : ? | ?
- CC(C)Cn1cc(C(=O)NCC2CCCN2C)c2ccccc21 (stereo not given)
 : 10% | 28%
- Cc1cc(CN2CCN(Cc3nc(C)no3)CC2)on1
 : -6% | 13%
- Clc1cccc(SC2CCNCC2)n1
 : -13% | -6%
- Fc1ccc(N/N=C/C(Br)=C/c2ccccc2)c(F)c1
 : 54%[activator] | 212%[activator]
- Cc1cccc(-n2c(Cc3ccccc3)nnc2SCc2nc(-c3cccs3)no2)c1
 : 74%[activator] | -24%
- CC1C2CC(C/C2=N\NC(N)=S)C1(C)C (stereo not given)
 : -12% | 1%
- CCONC(=O)c1cc2c(s1)CCC(C(C)(C)C)C2 (stereo not given)
 : -3% | 101%[activator]
- CCOc1ccc(-c2nc3c(c(SCC(=O)N4CCCCC4)n2)Cc2ccccc2O3)cc1
 : 0% | -2%
- O=C(Cc1c[nH]c2ccccc12)OCc1ccc(-c2ccccc2)cc1
 : -13% | -2%
- CCCCCn1c(NCCCO)nc2c1c(=O)[nH]c(=O)n2C
 : 20% | 28%
- CC(C)(C)C(=O)/C=c1/[nH]c(=O)/c(=C/c2cc(F)ccc2F)s1
 : 16% | 32%[activator]
- CC(=O)NNC(=S)Nc1cc(C)cc(C)c1
 : 7% | 9%
- COc1cc(OC)c(C2C3=C(CC(C)(C)CC3=O)Nc3n[nH]c(-c4ccccc4)c32)cc1OC (stereo not given)
 : 1% | 14%
- CCC(CO)NS(=O)(=O)c1cc(C)c(Br)cc1Cl (stereo not given)
 : 271%[activator] | 14%
- Cc1ccc(-c2cnc(CCC(=O)Nc3ccn(C)n3)o2)cc1C
 : -4% | 2%
- COc1ccc(C)cc1NC(=O)CCNC(=O)Cn1ccc2ccccc2c1=O
 : -8% | -16%

# Compound activity from PubChem BioAssay.
